RE007 growth inh: qHTS Assay for Inhibitors of the HIV-1 protein Vpr; S. pombe RE007 Vpr strain, BacTiter-Glo ATP luminescence, 24 h; control for the full effect not named in the record; Potency, µM (top dose mostly 92.2 µM), without a hit: at the highest dose activity change, negative = less growth; 360,000 tested, 0.21% active; AID 651644, 2012; active = well fitted falling curve with a large enough effect; inconclusive = small, poorly fitted or top-dose-only effect; inactive = no such curve, though single readings can be large or run the other way;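 also: % is scaled to controls: 0 for no effect and ±100 for the full control effect; nearly all actives have a fitted effect of over 50% in size; the assay follows cell death caused by Vpr and the record does not say whether a fall means rescue or toxicity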
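Fission yeast RE007 carrying one integrated HIV-1 vpr copy, seeded at OD 0.01 in PMG+AL medium with 23 nL pinned compound. Grown 24 h at 30 degrees; viability read by BacTiter-Glo luminescence after 5 min.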
Cruzain inh Det: qHTS Assay for Promiscuous and Specific Inhibitors of Cruzain (with detergent). Cruzipain (Trypanosoma cruzi), P25779. purified cruzain, Z-FR-AMC fluorescence, 0.01% Triton. Potency, µM, inactives show max response, negative = inhibition, hits mostly inhibitors. 200,000 tested, 0.43% active;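 also: plate controls were neutral wells for no effect and buffer without enzyme for full effect; nearly all actives have a fitted effect of over 40% in size; top concentration of the series not given in the record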
Target sequence (P25779 123-467 limits assumed): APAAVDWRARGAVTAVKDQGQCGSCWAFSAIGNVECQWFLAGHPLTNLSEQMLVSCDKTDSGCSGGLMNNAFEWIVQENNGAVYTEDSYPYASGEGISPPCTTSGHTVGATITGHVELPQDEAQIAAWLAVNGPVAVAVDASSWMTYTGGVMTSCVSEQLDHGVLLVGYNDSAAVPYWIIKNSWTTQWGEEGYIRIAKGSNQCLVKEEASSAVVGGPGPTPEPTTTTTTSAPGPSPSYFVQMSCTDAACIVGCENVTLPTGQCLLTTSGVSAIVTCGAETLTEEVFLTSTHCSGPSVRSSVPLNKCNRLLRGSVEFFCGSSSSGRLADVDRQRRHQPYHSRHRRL
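Compounds were screened in titration against cruzain (1.5 nM) with 0.01% Triton X-100 to counter colloidal aggregation. Activity was the AMC fluorescence increase over 60 s after adding 2 uM Z-FR-AMC at pH 5.5.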
Cruzain inh noDet: qHTS Assay for Promiscuous and Specific Inhibitors of Cruzain (without detergent); Cruzipain (Trypanosoma cruzi), P25779; purified cruzain, Z-FR-AMC fluorescence, no detergent; Potency, µM, without a hit: max response, negative = inhibition, actives largely listed as inhibitors; 200,000 tested, 2.3% active; AID 1476, 2009;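 also: plate controls were enzyme without inhibitor for no effect and buffer without enzyme for full effect; nearly all actives have a fitted effect of over 40% in size; top concentration of the series not given in the record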
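Purified cruzain at 1.5 nM, pre-incubated 15 min with compound at room temperature in 100 mM sodium acetate pH 5.5, 5 mM DTT, 0.00005% Triton X-100. Reaction started with 2 uM Z-FR-AMC; AMC fluorescence increase over 60 s gives rate.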
MARV entry inh: qHTS for inhibitors of binding or entry into cells for Marburg Virus | Marburg virus pseudotyped entry inhibition, cell reporter; control for the full effect not named in the record; about a third of the inactives were read at about 46 µM | AID 540276, 2011 | 300,000 tested, 1.8% active | Potency, µM (titrated, usually from 37.8 µM), inactives show at the highest dose activity change, negative = inhibition, actives largely listed as inhibitors; active = well fitted inhibition curve with a large enough effect; inconclusive = small, poorly fitted or top-dose-only effect, or effect the other way; inactive = flat fitted curve, though single readings scatter; tested in HEK293 cells; about a fifth of its hits are not listed in these tables; also: % is scaled to controls: 0 for no effect and ±100 for the full control effect; luciferase read-out
SARS PLP yeast: qHTS of Yeast-based Assay for SARS-CoV PLP. S. cerevisiae expressing SARS-CoV PLpro, growth rescue; control for the full effect not named in the record. Potency, µM (series often up to 32.9 µM), inactives show at the highest dose activity, positive = growth rescue. 330,000 tested, 0.19% active; active means well fitted rising curve with a large enough effect; inconclusive means small, poorly fitted or top-dose-only effect; inactive means no such curve, though single readings can be large or run the other way; also: 0% is about no effect; nearly all actives have a fitted effect of over 55% in size; growth read by luminescence after 48 h
NS1 function inh: qHTS Assay for Inhibitors of Influenza NS1 Protein Function; Potency, µM (series often up to 46.1 µM), without a hit: top-dose activity, positive = more growth; 270,000 tested, 0.4% active; S. cerevisiae slowed by influenza A NS1, growth recovery by OD600; AID 2326, 2010; active means well fitted rising curve with a large enough effect; inconclusive means small, poorly fitted or top-dose-only effect; inactive means no such curve, though single readings can be large or run the other way; also: nearly all actives have a fitted effect of over 50% in size
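Recovery from NS1-induced slow growth read by OD600 in budding yeast switched to galactose assay medium (pH 6.0, -URA) at 1:100 dilution. Compound 23 nl per well; the matching strain lacking NS1 serves as control.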
2A StopGo: High Throughput Screening for Foot and Mouth Disease Virus Antivirals | human cells with a luciferase reporter of 2A StopGo recoding; control for the full effect not named in the record | Potency, µM (top dose mostly 57.9 µM), inactives show top-dose signal change, negative = less light | 410,000 tested, 1.2% active | AID 1159524, 2015; active = well fitted falling curve with a large enough effect; inconclusive = small, poorly fitted or top-dose-only effect; inactive = no such curve, though single readings can be large or run the other way; tested in HEK293T cells; also: % is scaled to controls: 0 for no effect and ±100 for the full control effect; nearly all actives have a fitted effect of over 45% in size; luciferase light after 4 h
Lassa entry inh: qHTS for Inhibitors of binding or entry into cells for Lassa Virus. Lassa virus pseudotype entry inhibition, cell reporter; control for the full effect not named in the record. Potency, µM (series often up to 37.9 µM), for inactives: at the top dose activity change, negative = inhibition, usual class: inhibitors. 300,000 tested, 1.2% active. AID 540256, 2011; active means well fitted inhibition curve with a large enough effect; inconclusive means small, poorly fitted or top-dose-only effect, or effect the other way; inactive means flat fitted curve, though single readings scatter; tested in HEK293 cells; also: % is scaled to controls: 0 for no effect and ±100 for the full control effect; nearly all actives have a fitted effect of over 50% in size; luciferase read-out
Numbers without * were called inactive; ? = inconclusive; · = not tested or not shown; [ ] = dose if it differs, or a comment. Unless noted, calls follow the shape of the dose curve; as a rule, active = well fitted curve in the direction sought with a large enough effect; inconclusive = small, poorly fitted or top-dose-only effect, or another doubt; inactive = no such curve, though single readings can be large; an effect the other way counts as inactive or inconclusive. Potency is read from the fitted curve at half-maximal effect.

SMILES	RE007 growth inh	Cruzain inh Det	Cruzain inh noDet	MARV entry inh	SARS PLP yeast	NS1 function inh	2A StopGo	Lassa entry inh
CCc1ccc(NC(=S)N2CCN(c3cccc(C(F)(F)F)c3)CC2)cc1	-4%	7.3%	?	?	-6%	-6%	27%	?
COc1ccccc1CNC(=O)CS(=O)(=O)c1ccccc1	7%	·	·	-18%[46.1 µM]	2%	8%	12%	?
O=C(c1ccccc1)C1C(c2ccccc2)C1[N+](=O)[O-] (stereo not given)	11%	·	·	?	0%	9%	-14%	17%
O=C(NCc1ccc2c(c1)OCO2)c1c(Cl)cccc1Cl	4%	·	·	-14%	-5%	-11%	3%	?
C#CCNC(=O)C1=C[C@@H](c2ccc3c(c2)OCO3)[C@H](CCCO)[C@@H](OCC)O1	9%	·	·	·	1%	0%	-7%	·
COc1ccc(C2=NN(CC(=O)Nc3cc(C)ccc3C)C(=O)CC2)cc1	11%	·	·	·	1%	-4%	-9%	·
CC(=O)CSc1nc(C(F)(F)F)cc(=O)n1-c1ccccc1	4%	0.0%	1%	-1%	7%	0%	-21%	2%
Cc1ccc(-c2nn(-c3ccccc3)cc2CN(Cc2ccccc2)C(=O)c2ccco2)o1	-7%[3.69 µM]	-7.2%	-3%	?	-1%	15%	28µM*	?
C/C=C/c1ccc(OCCNCc2ccccc2)c(OC)c1	-7%	·	·	·	1%	-1%	-7%	·
CCc1cccc(CC)c1NC(=O)COC(=O)C1(C)CC1(Cl)Cl (stereo not given)	11%	·	·	·	3%	-6%	3%	·
Cc1[nH]c2ccc(C(=O)NCc3ccccn3)cc2c1C	8%	·	·	·	-17%	-4%	42%[activator]	·
COc1ccc(C(C#N)N2CCC(c3ccccc3)=N2)cc1 (stereo not given)	-18%	·	·	?	0%	4%	2%	3%[46.1 µM]
O=C(NNC1=NS(=O)(=O)c2ccccc21)c1ccccc1	-7%	·	·	·	-4%	?	8%	·
Cc1cccc(C)c1NC(=O)COC(=O)C1CC1	4%	·	·	0%	-9%	·	-5%	6%
COc1cc(-c2nnc3sc(Cc4ccccc4)nn23)cc(OC)c1OC	-8%	-0.7%	19%	-20%	-8%	-10%	-25%	-29%
CNc1oc(C)nc1S(=O)(=O)c1ccccc1	-4%	-22%	-13%	6%	1%	3%	-4%	12%
O=C(O)CC/C(=N/NC(=O)CNC(=O)c1ccc2c(c1)OCCO2)c1ccccc1	-4%	·	·	4%[46.1 µM]	-3%	10%	-11%	-6%[46.1 µM]
OC1CCC(Nc2ncnc3sccc23)CC1 (stereo not given)	-8%	·	·	16%[46.1 µM]	1%	-1%	4%	7%
CCOC(=O)c1ccc(NC(=O)Cn2c(=O)oc3ccccc32)cc1	-2%	·	·	·	-1%	6%	-10%	·
O=C(COc1coc(CN2CCN(Cc3ccccc3)CC2)cc1=O)Nc1ccccc1	-4%	·	·	-9%	-2%	·	?	4%
Cc1c(-c2ccc(Cl)cc2)c(=O)oc2c(CN3CCN(CCO)CC3)c(O)ccc12	·	-0.2%	-13%	·	·	·	-17%	15%[46.1 µM]
O=C(CSc1nc2ccccc2s1)NNC(=S)Nc1ccc(Cl)cc1	19%	1.4%	-12%	5%	-26%	-1%	-16%	2%
CC(=O)C1=C(C)Nc2ncnn2C1c1cccc(O)c1 (stereo not given)	-2%	·	·	·	0%	10%	-12%	·
CCC(C)NC(=O)c1cc2c(=O)n(CC)c3ccccc3c2s1 (stereo not given)	-17%	·	·	-9%	1%	-1%	0%	?
CCCC(c1nnnn1CCOC)N1CCN(C(=O)c2ccco2)CC1 (stereo not given)	-13%	1.6%	2%	9%	0%	5%	-2%	-5%
CCc1ccc(C(=O)Cn2ccsc2=N)cc1	?	·	·	?	-9%	-50%	30%	?
O=C(O)C(Cc1ccccc1)N1C(=O)/C(=C/c2cccs2)SC1=S (stereo not given)	6%	·	·	-7%[46.1 µM]	0%	1%	13%	8%[46.1 µM]
CCO[C@@H]1OC(C(=O)Nc2ccccc2)=C[C@H](C2CC2)[C@H]1CCCO	7%	·	·	·	-2%	0%	-25%	·
Cc1cc(C)cc(-n2c(C)nc3cc(C(=O)NCc4ccccc4Cl)ccc32)c1	·	0.6%	2%	·	·	·	-5%	21%[46.1 µM]
CC1=Nc2ccccc2N=C(NC(=O)CN2CCN(c3ccc(F)cc3)CC2)C1c1ccccc1 (stereo not given)	5%	·	·	?	-1%	-12%	?	14%
O=C(C1=C[C@@H](c2ccc3c(c2)OCO3)C[C@@H](OCCCCO)O1)N1CCOCC1	0%	·	·	·	0%	2%	-3%	·
Cc1nc(C(=O)NC2CCOCC2)sc1C1(C)CC(c2ccccc2)=NO1 (stereo not given)	8%	·	·	·	0%	-4%	-25%	·
Nc1nnc(SCc2ccc(F)cc2Cl)s1	13%	-0.7%	-9%	21%	-14%	-72%	43%[activator]	?
CCOC(=O)C(CC(=O)c1ccccc1)CC(=O)c1ccccc1	?	·	·	·	-1%	-7%	73%[activator]	·
NC(=O)c1ccsc1NC(=O)CS(=O)(=O)c1ccccc1	0%	·	·	22%	-4%	·	43%[activator]	-17%
O=C1O/C(=C\C(=O)N2CCOCC2)c2ccccc21	19%	3.5%	-3%	-4%	-6%	1%	?	-10%
CCN(C(=O)COC(=O)c1c(C)noc1C)C1CCS(=O)(=O)C1 (stereo not given)	-10%	·	·	-1%	-1%	·	3%	11%
CN(C)C(=O)CSc1n[nH]c(-c2ccco2)n1	2%	·	·	-3%[46.1 µM]	-1%	4%	-1%	7%
C=CCNC(=O)COC(=O)c1ccc(Sc2nncn2C)c([N+](=O)[O-])c1	6%	·	·	4%[46.1 µM]	-1%	·	-5%	·
COc1cc(C2C(C#N)=C(N)Oc3cc(C)n(Cc4ccccn4)c(=O)c32)cc2c1OCO2 (stereo not given)	·	6.2%	-11%	4%	-2%	6%	·	·
CCOC(=O)Cc1ccc(NC(=O)NCc2c(-n3cccc3)sc3c2CCCC3)cc1	·	-6.7%	-8%	6%[46.1 µM]	·	·	-1%	-9%[46.1 µM]
CCCCC1(Cc2ccc([N+](=O)[O-])cc2)C(=O)N(c2ccccc2)N(c2ccccc2)C1=O	-1%	-4.2%	-13%	7.9µM*	-41%	22%	?	?
O=C(Nc1cccnc1)c1ccc(C(=O)Nc2cccnc2)cc1	-1%	·	·	-5%[46.1 µM]	0%	0%	-16%	7%
CC(C)=CCCC(C)CN1CCC(N2CCC(C(=O)N3CCOCC3)CC2)CC1 (stereo not given)	7%	·	·	·	0%	5%	-8%	·
Cc1ccc(CNC(=O)C(=O)NCC2CCCN2S(=O)(=O)c2cccs2)cc1 (stereo not given)	10%	·	·	15%	-1%	·	-9%	3%
O=C(CC1C(=O)N(c2ccccc2)C(=O)N1Cc1ccc2c(c1)OCO2)Nc1ccccc1 (stereo not given)	·	-1.0%	-4%	1%[46.1 µM]	·	·	22%	-12%[46.1 µM]
COCCNC(=O)NC(=O)COC(=O)C12CC3CC(CC(NC(C)=O)(C3)C1)C2	30%	2.1%	8%	3%	6%	1%	-9%	3%
Cc1ccccc1-c1cc2nc(-c3ccc([N+](=O)[O-])cc3)cc(=O)n2[nH]1	-7%	·	·	13%[46.1 µM]	0%	5%	-13%	26%[46.1 µM]
COc1ccc(Cc2nnc(NC(=O)c3ccccc3C)s2)cc1	15%	·	·	·	-2%	-7%	-20%	·
CC(C)Oc1cc(O)c2c(=O)c(-c3ccc(O)cc3)coc2c1	-28%	-8.2%	-3%	·	-8%	-25%	0%	·
Cc1ccc(-n2c(SCc3cn4ccsc4n3)nc3ccccc3c2=O)cc1	-11%	-5.3%	8%	-24%	-4%	?	-10%	?
Cc1ccc(-c2nnn(CC(=O)N(c3ccccc3)C(C(=O)NCC3CCCO3)c3ccc(F)cc3)n2)o1 (stereo not given)	-17%	·	·	?	1%	·	3%	-4%[46.1 µM]
COc1ccc(-n2c(-c3cccc(F)c3)nc3c(cnn3-c3ccc(C)cc3)c2=O)cc1	·	-1.3%	3%	?	·	·	-28%	-17%[46.1 µM]
COc1cc(Cn2nnc3ccccc32)cc(Br)c1O	5%	·	·	·	10%	-24%	-9%	·
Cc1cc(NC(=O)Cc2ccccc2[N+](=O)[O-])no1	-6%	·	·	·	6%	3%	3%	·
COc1ccccc1N1CCN(C(=O)/C=C/c2cccs2)CC1	1%	-2.3%	-5%	?	3%	-8%	18%	?
Cc1c(NC(=O)C2CC=CCC2C(=O)O)c(=O)n(-c2ccccc2)n1C (stereo not given)	26%	0.8%	-6%	7%	3%	-1%	3%	-7%
Cc1cc(NC(=O)COC(=O)CSc2nc3cc(Cl)ccc3n2Cc2ccccc2)no1	-12%	-2.3%	6%	7%	-1%	-3%	5%	1%
COc1ccc(CN(CC(=O)NCc2ccco2)C(=O)CNS(=O)(=O)c2ccc(C)cc2)cc1	7%	·	·	2%[46.1 µM]	-1%	0%	18%	?
CCc1cc2c(SCC(=O)NC3CC3)ncnc2s1	13%	·	·	9%	-10%	·	-13%	-15%
Following part:
SMILES	RE007 growth inh	Cruzain inh Det	Cruzain inh noDet	MARV entry inh	SARS PLP yeast	NS1 function inh	2A StopGo	Lassa entry inh
COc1ccc2oc(-c3ccc(NC(=O)c4ccc(N5CCOCC5)c([N+](=O)[O-])c4)cc3)nc2c1	-3%	-1.5%	5%	?	12%	7%	?	-2%
Cc1ccc(CC(=S)N2CCOCC2)cc1	-6%	·	·	34%[46.1 µM]	-3%	·	18%	-1%[46.1 µM]
COc1cc(C2NC(=O)NC(C)=C2C(=O)OCC2CCCO2)ccc1O (stereo not given)	13%	1.5%	-24%	-1%	4%	4%	-23%	3%
Cc1ccc(C(CC(=O)N2CCOCC2)c2ccco2)cc1 (stereo not given)	39%	-3.0%	?	-5%	7%	?	-16%	0%
CCOc1cc(OCC)cc(C(=O)NCCCN2CCOCC2)c1	?	·	·	?	-2%	·	-3%	-3%
